Vaccinia mCherry = inhibitors of vaccinia virus infection (mCherry reporter signal). hit rate 0.63% among 310,000. Vaccinia virus mCherry reporter infection, fluorescence; about a quarter of the inactives have no number. Potency, µM (highest dose often 36.5 µM), without a hit: at the highest dose activity change, negative = inhibition, hits mostly inhibitors; active = well fitted inhibition curve with a large enough effect; inconclusive = small, poorly fitted or top-dose-only effect; inactive = no such curve, though single readings can be large or run the other way; tested in A549 cells; also: nearly all actives have a fitted effect of over 35% in size; inactives centre near -10
Vaccinia Venus = inhibitors of vaccinia virus (Venus reporter); Vaccinia virus Venus reporter expression, fluorescence; Potency, µM (series often up to 36.5 µM), for the others: at the highest dose activity change, negative = inhibition, hits mostly inhibitors; hit rate 0.46% among 330,000; active means well fitted inhibition curve with a large enough effect; inconclusive means small, poorly fitted or top-dose-only effect; inactive means no such curve, though single readings can be large or run the other way; tested in A549 cells; also: nearly all actives have a fitted effect of over 30% in size; inactives centre near -10
* hit, by the source's call; i = inactive; ? = inconclusive; nt = no result given; [ ] = remark or other dose. % is scaled to controls: 0 for no effect and ±100 for the full control effect; potency is read from the fitted curve at half-maximal effect.

canonical_smiles | Vaccinia mCherry | Vaccinia Venus
CCOC(=O)C1CCN(S(=O)(=O)c2ccc(C)cc2)CC1 | -8% | -6%
O=C1CC(c2ccc3c(c2)OCO3)Sc2nc3ccccc3n21 (centres undefined) | i | -1%
CCc1nc(CNC(=O)C2CCC(=O)N(CCc3ccc(OC)cc3)C2)cs1 (centres undefined) | -13% | -2%
COC(=O)C1(C(F)(F)F)C2C=CC(C2)N1S(=O)(=O)c1ccc(C)cc1 (centres undefined) | -7% | -4%
O=C(c1cn(-c2ccccc2)nc1-c1cccs1)N(CCO)Cc1ccccc1 | 0% | -24%
O=c1[nH]c(SCc2ccccc2[N+](=O)[O-])nc2nc[nH]c12 | i | -12%
C/C(=N/NC(=O)Cc1ccccc1)c1ccc(C)s1 | -13% | 0%
CC1SC(=Nc2ccccc2)N(S(=O)(=O)c2ccccc2)C1=O (centres undefined) | i | 2%
CC(=O)N1CCN(c2ccccc2NC(=O)c2ccc(Br)o2)CC1 | -28% | -21%
COc1ccc(CCn2c(C)cc(C(=O)CSc3nc(N)cc(=O)[nH]3)c2C)cc1 | -12% | ?
CC[C@@]1(C(=O)OC)N[C@H](CN(C)C(=O)COc2ccccc2)[C@@H]2C(=O)N(Cc3ccccc3)C(=O)[C@@H]21 | -26% | -19%
CCCN(CCC)Cc1cc(=O)oc2cc3c(cc12)CCC3 | i | -7%
O=C1c2ccccc2[C@@H]2C[C@@H](O)[C@H](Nc3ccccc3-c3ccccc3)CCN12 | 19% | -4%
CN(C)S(=O)(=O)N1CCN(CC(O)COc2ccc3cc(Br)ccc3c2)CC1 (centres undefined) | nt | -24%
Cc1ccc(S(=O)(=O)n2nc(-c3ccc(Cl)cc3)nc2NCc2ccccc2)cc1 | -13% | 10%
CN1OC[C@@H]2CN3C(=O)N(c4cccc5ccccc45)c4ccccc4[C@@H]3C[C@@H]21 | i | -1%
c1ccc(CCN2CCN=C2Nc2ccccc2)cc1 | -7% | -10%
Cc1cc2n(n1)CCC(=O)N2Cc1ccc(C(=O)Nc2cccc(C(F)(F)F)c2)cc1 | -10% | -18%
O=C(Cn1ncc2c3ccccc3n(Cc3cccc(Cl)c3)c2c1=O)NCc1cccs1 | -18% | -13%
COC(=O)c1c(NC(=O)c2nc3ccccc3s2)sc2c1CC(C)(C)NC2(C)C | ? | 11µM*
Cc1nn(CCC(=O)NC(C)C)c(=O)c2nn(-c3ccccc3)c(C)c12 | -7% | -10%
CCOc1ccc2c(c1)n([O-])c1c([n+]2=O)CCCC1 | 18% | -6%
CCCCNC(=O)C(=O)N/N=C/c1ccc(OCC(=O)Nc2cccc(OC)c2)c(OC)c1 | ? | ?
Cc1c(NC(=O)COC(=O)c2ccccc2Cl)c(=O)n(-c2ccccc2)n1C | -1% | -4%
CCn1cc(C2CC(=O)NC2=O)c2ccccc21 (centres undefined) | -16% | -10%
OC1(c2ccccc2)CCN(Cc2ccccc2)CC1 | -3% | -18%
CC1=C(C(=O)N2CCOCC2)CC(CC(=O)NCc2cccc3ccccc23)C(=O)N1CCCN1CCCC1=O (centres undefined) | i | -13%
CC1(C)C[C@H]2C3=CCC4[C@@]5(C)CC[C@H](O)[C@](C)(CO)C5CC[C@@]4(C)[C@]3(C)C[C@H]3O[C@@H]1[C@H](O)[C@]32CO (some centres undefined) | -16% | -6%
CCN1CCN(Cc2c(O)ccc3c(=O)c(-c4ccccc4OC)coc23)CC1 | -4% | -14%
Cc1ccc(O)c(NS(=O)(=O)c2cccc3nsnc23)c1 | -17% | -21%
Cc1cc2nc(N(Cc3cccnc3)C(=O)c3ccc(Cl)s3)sc2cc1C | -13%[7.34 µM] | -9%[7.34 µM]
Cc1nc([N+](=O)[O-])cn1CC(O)c1ccc2c(c1)OCCCO2 (centres undefined) | -5% | -9%
Cc1cc(C(=O)Nc2ccccc2C)n(-c2ccccc2)n1 | i | -3%
O=C(O)c1ccccc1N/N=C\c1ccnc2ccccc12 | nt | -13%
COc1ccc(-c2nn(-c3ccccc3)cc2/C=C(/C#N)C(N)=O)cc1[N+](=O)[O-] | i | -12%
Cc1ccccc1CC1(CO)CCCN(Cc2ccc(C#CC(C)(C)O)cc2)C1 (centres undefined) | -16% | -15%

Filtered by structure: those above containing an aryl thioether with sulfur outside any ring (two)
canonical_smiles | Vaccinia mCherry | Vaccinia Venus
O=c1[nH]c(SCc2ccccc2[N+](=O)[O-])nc2nc[nH]c12 | i | -12%
COc1ccc(CCn2c(C)cc(C(=O)CSc3nc(N)cc(=O)[nH]3)c2C)cc1 | -12% | ?

Rewritten field by field: part of the list above
> CC1=C(C(=O)N2CCOCC2)CC(CC(=O)NCc2cccc3ccccc23)C(=O)N1CCCN1CCCC1=O (centres undefined)
  Vaccinia mCherry: i
  Vaccinia Venus: -13%
> CC1(C)C[C@H]2C3=CCC4[C@@]5(C)CC[C@H](O)[C@](C)(CO)C5CC[C@@]4(C)[C@]3(C)C[C@H]3O[C@@H]1[C@H](O)[C@]32CO (some centres undefined)
  Vaccinia mCherry: -16%
  Vaccinia Venus: -6%
> CCN1CCN(Cc2c(O)ccc3c(=O)c(-c4ccccc4OC)coc23)CC1
  Vaccinia mCherry: -4%
  Vaccinia Venus: -14%
> Cc1ccc(O)c(NS(=O)(=O)c2cccc3nsnc23)c1
  Vaccinia mCherry: -17%
  Vaccinia Venus: -21%

The list continues.
canonical_smiles | Vaccinia mCherry | Vaccinia Venus
CCn1c(SCC(=O)Nc2sc3c(c2C#N)CCC(C(C)(C)C)C3)nnc1-c1ccco1 (centres undefined) | -13% | -2%
CCCc1ccc(C(=O)/C=C/N(C)C)cc1 | -4% | -17%
COc1ccc(CNc2nc(-c3cccnc3)nn2C(=O)c2cccs2)cc1 | i | 0%
CCOC(=O)c1cccc(NC(=O)c2sc3nc[nH]c(=O)c3c2C)c1 | -9% | -12%
Cc1cccc2cc3c(N)c(C#N)sc3nc12 | 3% | -8%
COc1ccc(C2N3CC4(C)CN2CC(C)(C3)C4)cc1OC (centres undefined) | -15% | -15%
Cc1ccc(S(=O)(=O)NC(CC(=O)O)c2ccccc2)c(C)c1 (centres undefined) | -5% | -5%
CC(=O)c1cccc(NC(=O)Cn2nc(-c3ccccc3Cl)ccc2=O)c1 | -10% | -10%
CCOCCCNc1nc(=S)[nH]c2cc(OC)c(OC)cc12 | -13% | -19%
O=C1CSC(c2cccs2)N1c1ccccc1 (centres undefined) | -12% | -10%
Cc1ccccc1OCCC(=O)Nc1ccc(S(=O)(=O)N2CCCC2)cc1 | ? | -18%
Cc1nn(-c2ccccc2)c2c1C(c1ccco1)C(C#N)=C(N)O2 (centres undefined) | -14% | -3%
CCOC(=O)Cn1c(=O)oc2cc(S(=O)(=O)NCc3ccccn3)ccc21 | -9% | -9%
CCC(C)NS(=O)(=O)c1ccc(NS(C)(=O)=O)cc1 (centres undefined) | nt | -22%
O=C(NCc1ccco1)C(c1cccs1)N(Cc1ccccc1)C(=O)Cn1nnc2ccccc21 (centres undefined) | nt | -22%
COc1ccc(C2(SCC(N)C(=O)O)c3ccccc3-c3ccccc32)cc1 (centres undefined) | -16% | -9%
Cn1c(SCCOc2ccc(F)cc2)nnc1-c1ccncc1 | -6%[7.34 µM] | -28%[7.34 µM]
CCOC(=O)C1=C(C)NC(C)=C(C(=O)OCC)C1c1ccc(OC)c(OC)c1 | i | -10%
CCOC(=O)c1sc(N)c(C(=O)OC)c1C | -18% | -17%
Cc1ccc(S(=O)(=O)CCC(=O)OCC(=O)N(Cc2ccccc2)C(C)C)cc1 | -24% | -20%
C[C@@H]1CN([C@@H](C)CO)C(=O)c2cc(NS(C)(=O)=O)ccc2O[C@@H]1CN(C)Cc1ccc(C(F)(F)F)cc1 | -14% | -27%
Cc1cc(Oc2ccc(OCC(N)=O)nn2)nc(Cl)n1 | i | -2%
CCOC(=O)N1CCN(C(=O)c2ccc3oc(CCc4ccccc4)nc3c2)CC1 | -21% | -19%
COc1ccccc1C(=O)Nc1ccc2c(c1)C(=O)NC2=O | -28% | -20%
O=C(CCNC(=O)c1ccc(Cl)cc1)NCc1ccco1 | -18% | -12%
COc1cc(OC)cc(C(=O)Nc2ccc(N3CCN(C(=O)c4cccs4)CC3)cc2)c1 | ? | ?
COc1ccc(N2C(=O)Cc3cc(OC)c(OC)cc3C2c2ccc(F)cc2)cc1 (centres undefined) | 7% | -1%
CCN(CC)C(=O)C1=C(C)N(Cc2ccccc2)C(=O)C(CC(=O)NCc2cccc3ccccc23)C1 (centres undefined) | ? | -22%
CCOc1ncccc1C(=O)Nc1cccc(Cl)c1Cl | i | 5%
O=C(CCC1CCCN(C(=O)c2cccc(F)c2)C1)N1CCN(c2ccccn2)CC1 (centres undefined) | -17% | -16%
CCOC(=O)N1CCN(C(=O)c2cn(-c3ccc(C)c(C)c3)c(=O)c3ccccc23)CC1 | nt | -25%
NS(=O)(=O)c1cccc(NC(=O)CSc2ncc(C(F)(F)F)cc2Cl)c1 | -28% | -15%
O=C1Nc2ccccc2C1=O | -1% | -4%
CCCc1c(C)[nH]c2nc3ccccc3n2c1=O | -22% | -7%
Cc1ccc([N+](=O)[O-])cc1NC(=O)C(C)Sc1nnc(C)n1CC1CCCO1 (centres undefined) | -3% | -10%
COc1ccc(-c2nn(-c3ccccc3)cc2/C=C(\CC(=O)O)c2nc3ccccc3s2)cc1OC | -7% | -6%
O=[N+]([O-])c1ccc(N2CCN(S(=O)(=O)c3ccccc3)CC2)cc1NCCN1CCOCC1 | ? | ?
CCOC(=O)C1=CN(Cc2ccco2)S(=O)(=O)NC1CC (centres undefined) | -9% | -6%
COC(=O)c1ccc(NC(=O)c2ccc(OC(C)=O)c(OC)c2)cc1 | ? | -23%
O=C(CSc1nnc(-c2ccncc2)n1Cc1ccco1)Nc1ccccc1Cl | i | -14%
O=C(C[n+]1ccc2ccccc2c1)c1ccc2ccc3ccccc3c2c1 | 5% | -8%
O=c1[nH]c2cc(Cl)c(Br)cc2o1 | -2% | -10%
O=C(COc1ccc2c(c1)CCC2)N1CCN(c2ccc(F)cc2)CC1 | -22% | -13%
CCOC(=O)c1ccc(NC(=O)c2sc3ccccc3c2Cl)cc1 | 3% | 16%
CCOC(=O)c1c(C)[nH]c(C(=O)OCC(=O)c2ccccc2)c1C | -9% | -22%
O=C(C1CCC(=O)N(C2CC2)C1)N1CCN(c2cccc(Cl)c2)CC1 (centres undefined) | i | -12%
Cc1ccc(NC(=S)Nc2ccc3[nH]c(=O)[nH]c3c2)cc1C | -12% | -4%
O=C1Nc2c(c(=O)[nH]c(=O)n2Cc2ccccc2)C1(NS(=O)(=O)c1ccccc1)C(F)(F)F (centres undefined) | -11% | -13%
CCOC(=O)c1c(S(=O)(=O)N2CCC(C(=O)NCc3cccc(OC)c3)CC2)c(C)n(C)c1C | -6% | -5%
O=C(Nc1ccccc1O)c1ccc2c(c1)C(=O)N(N1C(=O)c3ccccc3C1=O)C2=O | -10% | -5%

Screening data deposited in PubChem by National Center for Advancing Translational Sciences (NCATS).
